Assay outcomes: PubChem BioAssay, National Center for Advancing Translational Sciences (NCATS)
TRPML1 blocker – human mucolipin-1 channel inhibition | Q9GZU1 | TRPML1-inducible cells, Ca2+ dye fluorescence, FDSS; stronger effect = lower value; inhibition of EC80 agonist-evoked calcium signal | activity change, negative = inhibition, % (no concentration beside the values) | hit rate 0.02% among 390,000; in the data active means activity change below about -50%; inconclusive means about -30% to -50%; inactive means above about -30%;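 further: stimulus is agonist 54-4 at its EC80 concentration; on the % scale 0 is the no-effect control and ±100 the full control effect; compound concentration not given in the record; the text of the record puts the active cut at -80%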
Target sequence (Q9GZU1 whole entry, looked up): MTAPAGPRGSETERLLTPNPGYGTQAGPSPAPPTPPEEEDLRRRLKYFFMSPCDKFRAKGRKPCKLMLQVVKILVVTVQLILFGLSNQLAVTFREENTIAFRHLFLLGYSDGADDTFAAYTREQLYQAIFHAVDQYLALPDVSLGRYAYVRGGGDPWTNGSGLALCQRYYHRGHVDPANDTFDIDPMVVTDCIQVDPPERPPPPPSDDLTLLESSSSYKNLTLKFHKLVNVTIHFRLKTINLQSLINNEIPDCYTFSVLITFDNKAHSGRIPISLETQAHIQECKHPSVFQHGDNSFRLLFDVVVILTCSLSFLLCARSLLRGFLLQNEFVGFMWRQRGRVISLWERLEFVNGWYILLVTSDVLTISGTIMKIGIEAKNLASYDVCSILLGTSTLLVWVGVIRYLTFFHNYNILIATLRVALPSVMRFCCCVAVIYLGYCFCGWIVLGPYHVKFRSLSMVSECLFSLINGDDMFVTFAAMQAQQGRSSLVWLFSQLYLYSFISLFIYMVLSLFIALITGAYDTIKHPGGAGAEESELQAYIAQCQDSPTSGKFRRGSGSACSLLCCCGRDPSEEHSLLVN
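TRPML1-DL cells, Tet-induced overnight (~16 h, 37 °C) at 1,500 cells/well, were loaded with Ca8 no-wash dye plus quencher for 45-90 min at room temperature. Compounds were pinned during FDSS kinetic reading; agonist 54-4 at EC80 (4 uM final) then added.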
D2 ag – human D2 receptor agonism in beta-arrestin assay | P14416 | AID 624465 | hit rate 0.084% among 360,000 | DiscoveRx PathHunter D2 beta-arrestin, luminescence, 90 min; 100% = 57 uM dopamine signal | activation, % (concentration not given with the values); in the data active = activation above about 40%; inconclusive = about 15% to 40%; inactive = below about 15%; further: compound concentration not given in the record; the text of the record calls up to 30% inactive
Target sequence (P14416 whole entry, looked up): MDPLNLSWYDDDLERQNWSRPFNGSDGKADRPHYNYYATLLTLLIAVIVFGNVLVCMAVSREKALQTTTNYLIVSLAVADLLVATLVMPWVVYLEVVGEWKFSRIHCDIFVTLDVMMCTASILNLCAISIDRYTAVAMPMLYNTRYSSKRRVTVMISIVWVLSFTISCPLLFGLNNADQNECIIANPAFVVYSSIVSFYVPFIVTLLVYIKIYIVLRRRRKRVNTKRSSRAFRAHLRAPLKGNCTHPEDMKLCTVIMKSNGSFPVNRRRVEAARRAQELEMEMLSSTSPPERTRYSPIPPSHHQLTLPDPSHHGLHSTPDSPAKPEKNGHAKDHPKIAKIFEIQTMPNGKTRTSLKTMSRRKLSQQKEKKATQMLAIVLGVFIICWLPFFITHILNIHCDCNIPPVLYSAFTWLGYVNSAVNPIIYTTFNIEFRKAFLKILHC
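DiscoveRx PathHunter D2 beta-arrestin cells (2,100/well) attached overnight, then compound-stimulated 90 min at 37 C in HBSS/10 mM HEPES/0.1% Tween-20 buffer; beta-galactosidase complementation read by luminescence after 1 h at ambient temperature. Dopamine 57 uM final (EC100) as control.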
Six1-Eya2 blk – blocks human Six1 binding to Eya2. AlphaScreen GST-Six1/His-Eya2 binding, biochemical; stronger effect = lower value; control for the full effect not named in the record. Q15475+O00167. activity change, % (concentration not given with the values). hit rate 0.56% among 360,000; in the data active = activity change below about -65%; inconclusive = about -30% to -65%; inactive = above about -30%; further: on the % scale 0 is the no-effect control and ±100 the full control effect
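Homogeneous AlphaScreen proximity assay pairing GST-Six1 with His-tagged Eya2 (added as 5X mix: 250 nM and 500 nM) in 50 mM Tris pH 8.0, 300 mM NaCl, 1 mM TCEP. Glutathione donor and nickel acceptor beads; 1 h, 37 °C, dark.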
TRPML1 agonist – agonists of human TRPML1 channel | AID 624414 | Q9GZU1 | TRPML1-expressing cells, Ca2+ dye fluorescence, FDSS; host cell line not named in the record; reference of the full effect not given here | activation, % (no concentration beside the values) | hit rate 0.12% among 410,000; in the data active = activation above about 50%; inconclusive = about 30% to 50%; inactive = below about 30%; further: 0% is about no effect; the text of the record puts the active cut at 80%
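Agonist activity was taken from a 110 s kinetic Ca2+ dye read on the FDSS after pinning compounds onto TRPML1-DL cells. The cells were seeded at 1,500/well with Tet inducer, incubated about 16 h, then dye-loaded at room temperature.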
PINK1 modulator – changes PINK1 expression | PINK1 immunofluorescence, high-content cytometry, 24 h | Potency, µM (highest dose often 76.6 µM), without a hit: at the highest dose activation (PINK1 increase), actives largely listed as activators | hit rate 0.2% among 410,000 | AID 624263; active = well fitted activation curve with a large enough effect; inconclusive = small, poorly fitted or top-dose-only effect; inactive = flat fitted curve, though single readings scatter; cell line not stated here;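 further: potency means the concentration at half of the fitted maximal effect; % of control where 0% means no effect; nearly all actives have a fitted effect of over 65% in size; a mitochondrial uncoupler was the plate control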
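Cells are seeded, rested 12 hours, then given compound at five concentrations or DMSO for 24 hours. After fixation, blocking and antibody staining, PINK1 amount and mitochondrial localization are scored; CCCP serves as control.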
D2 PAM – positive allosteric modulators of human D2 dopamine receptor; DiscoveRx D2 beta-arrestin cells, luminescence, 90 min; 100% = 57 uM dopamine signal; AID 624464; potentiation, % (test concentration not listed); hit rate 0.23% among 360,000; active = potentiation of 50% or more; inconclusive = 30% to 50%; inactive = 30% or less;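 further: compound concentration not given in the record; tested on top of an EC20 dose of dopamine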
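PathHunter beta-arrestin assay in DiscoveRx D2 cells. Compounds were added with an EC20 of dopamine (50 nM final) for 90 min at 37 deg C. Luminescence was read 1 h after detection reagent, with 57 uM dopamine as the EC100 control.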
An asterisk follows results filed as active; ? = inconclusive; . = not tested or not shown; & = joins results of further samples; [ ] = remark or other dose.

SMILES	TRPML1 blocker	D2 ag	Six1-Eya2 blk	TRPML1 agonist	PINK1 modulator	D2 PAM
O=C(CS(=O)(=O)c1ccccc1)c1cc2cc(F)ccc2oc1=O	-14	3.6	3	2.6	2.2%	-1
COc1cccc(OCC(O)CN2CCN(c3ccc(F)cc3)CC2)c1 (configuration not stated)	-3	1.4	-12	1.5	-0.9%	-13
COc1cccc(NC(=O)Nn2cnnc2)c1	-5	-2.1	-7	-0.2	-0.2%	-6
CCOC(=O)c1ccc(NC(=O)NS(=O)(=O)c2ccc(C)cc2)cc1	10	-0.2	-1	-0.5	-1.1%	9
COc1ccc(C(=O)NCCCn2ccnc2)cc1	-2	-2.1	-2	-0.4	-0.7%	21
Cc1nc2sccn2c(=O)c1Br	7	-1.5	-6	-0.1	0.5%	-32
CCCCCCC(=O)Nc1c(O)c2ccccc2[nH]c1=O	-1	-3.5	-1	-0.5	-0.3%	-21
CC(Oc1ccc(Cl)cc1Cl)C(=O)Nc1ccncc1 (configuration not stated)	2	-1.4	1	4.0	0.0%	-14
CCc1nc(SCc2cccnc2)c2c(=O)n(C)c(=O)n(C)c2n1	24	-4.3	1	0.1	1.9%	-9
CC(C)[C@H](NC(=O)NCCC1=CCCCC1)C(=O)O	.	-6.2	1	.	2.0%	-6
CC1CNC(=S)N(c2ccc(F)cc2)C1=O (configuration not stated)	-4	-4.2	8	0.6	-0.9%	-9
Cc1cc(C)c(NC(=S)N2CCCC2C(=O)O)c(C)c1 (configuration not stated)	5	-1.0	?	1.4	-0.5%	0
O=C(NCc1ccccc1F)c1ccc2c(c1)OCCO2	-2	1.9	4	0.0	-0.9%	-2
CCOc1ccc(CN2CCNC(=O)C2CC(=O)NCc2cc(C)n(C)n2)cc1 (configuration not stated)	-9	-4.5	-3	0.9	0.4%	-27
COc1cc(OC)c(NC(=O)CCCn2c(=O)oc3ccccc32)cc1Cl	-13	-6.9	-9	0.2	5.7%	-5
Cc1ccc(S(=O)(=O)/N=C2/C=C(Sc3ncn[nH]3)C(=O)c3ccccc32)cc1	-6	8.0	?	-0.1	-1.7%	-17
O=C(COc1ccc(S(=O)(=O)N2CCOCC2)cc1Cl)N1CCOCC1	-11	-0.1	-5	0.1	-2.2%	-3
O=S(=O)(/N=C(/Nc1ccc(F)cc1F)c1ccc(Cl)cc1)c1ccccc1	13	-1.7	8	-0.3	7.0%	-5
O=[N+]([O-])c1cc2c(c(CSc3nnc4ccccn34)c1)OCOC2	-4	-6.8	2	-0.5	1.3%	-9
CCc1cccc2c(C(=S)N3CCOCC3)c[nH]c12	-7	0.5	-1	-0.2	6.9%	1
CCOc1ccc(S(=O)(=O)N2CCCCC2)cc1NC(=O)C1COc2ccccc2O1 (configuration not stated)	20	-1.5	-7	0.8	0.4%	-8
N#Cc1c(C(F)(F)F)cc(-c2cccs2)nc1SCC(=O)O	-10	-5.8	3	-0.6	-1.0%	-15
O=C1C(=O)c2c(C(=O)c3ccccc3)coc2-c2ccccc21	1	?	-20	4.6	-4.0%	71*
COc1cccc(-n2nnc3c(=O)n(Cc4ccccc4Cl)cnc32)c1	31	0.9	0	0.3	16%	-12
O=C(COC(=O)/C=C/c1cccc([N+](=O)[O-])c1)NCc1ccc2c(c1)OCO2	1	-4.6	2	-0.6	4.6%	-6

An excerpt from above in order of SMILES length, ascending:
SMILES	TRPML1 blocker	D2 ag	Six1-Eya2 blk	TRPML1 agonist	PINK1 modulator	D2 PAM
Cc1nc2sccn2c(=O)c1Br	7	-1.5	-6	-0.1	0.5%	-32
CC1CNC(=S)N(c2ccc(F)cc2)C1=O (configuration not stated)	-4	-4.2	8	0.6	-0.9%	-9
CC(Oc1ccc(Cl)cc1Cl)C(=O)Nc1ccncc1 (configuration not stated)	2	-1.4	1	4.0	0.0%	-14
CCCCCCC(=O)Nc1c(O)c2ccccc2[nH]c1=O	-1	-3.5	-1	-0.5	-0.3%	-21
CC(C)[C@H](NC(=O)NCCC1=CCCCC1)C(=O)O	.	-6.2	1	.	2.0%	-6
N#Cc1c(C(F)(F)F)cc(-c2cccs2)nc1SCC(=O)O	-10	-5.8	3	-0.6	-1.0%	-15
O=C1C(=O)c2c(C(=O)c3ccccc3)coc2-c2ccccc21	1	?	-20	4.6	-4.0%	71*
O=C(CS(=O)(=O)c1ccccc1)c1cc2cc(F)ccc2oc1=O	-14	3.6	3	2.6	2.2%	-1
O=[N+]([O-])c1cc2c(c(CSc3nnc4ccccn34)c1)OCOC2	-4	-6.8	2	-0.5	1.3%	-9
O=S(=O)(/N=C(/Nc1ccc(F)cc1F)c1ccc(Cl)cc1)c1ccccc1	13	-1.7	8	-0.3	7.0%	-5
Cc1ccc(S(=O)(=O)/N=C2/C=C(Sc3ncn[nH]3)C(=O)c3ccccc32)cc1	-6	8.0	?	-0.1	-1.7%	-17

(more compounds)
SMILES	TRPML1 blocker	D2 ag	Six1-Eya2 blk	TRPML1 agonist	PINK1 modulator	D2 PAM
COC(=O)c1ccc(CSc2nc3ccc(S(N)(=O)=O)cc3[nH]2)cc1	4	-2.5	-1	-0.7	0.5%	-9
CC(C)Cn1c(=O)c2ccccc2n2c(-c3cccc(Cl)c3)nnc12	9	.	.	-0.2	0.2%	.
CC(NC(=O)c1ccccc1)C(c1cccs1)N1CCOCC1 (configuration not stated)	-1	-4.8	-2	-0.1	-0.1%	2
COc1ccc(CCNC(=O)c2c(C)oc3ncn(CC(C)C)c(=O)c23)cc1OC	9	.	.	0.2	-0.4%	.
c1ccc(C2CC(c3ccccc3)n3ncnc3N2)cc1 (configuration not stated)	2	0.5	4	1.2	-3.9%[38.3 µM]	-1
O=C(NC1CCCC1)C(c1ccccc1)N(Cc1ccc2c(c1)OCO2)C(=O)Cc1cccs1 (configuration not stated)	5	-0.2	-3	1.6	9.3%	-7
CCc1ccccc1NC(=O)C1CCCN1S(=O)(=O)c1ccc(-c2ccc(=O)[nH]n2)s1 (configuration not stated)	-19	7.3	-3	0.2	-1.9%	-10
Nc1nc(N)c(N=O)c(Nc2ccc(Cl)c(Cl)c2)n1	.	.	?	-0.5	0.0%	.
CCCOc1ccc(N2C(=O)CC(NNC(=O)c3ccc(COc4ccccc4)o3)C2=O)cc1 (configuration not stated)	-5	6.2	3	2.1	7.8%	-12
O=C(Nc1ccccc1C(=O)Nc1nnc(C(F)(F)F)s1)c1ccccc1	2	4.5	0	1.6	?	1
Cc1ccc(C(=O)Nc2nnc(S(=O)(=O)N3CCN(c4ccc(F)cc4)CC3)s2)cc1	2&8	-3.4	1	0.4&1.0	9.2%&-0.8%	-6
Cc1cc(C)c(C#N)c(SCc2ccc(C#N)cc2)n1	17	-4.9	0	0.4	13%	-12
Cc1ccc(S(=O)(=O)NCC[C@@]2(C)C3CCC2(C)C(=O)C3)cc1 (some centres not stated)	30	-3.9	2	-0.3	0.5%	-2
O=C(CCN1C(=O)C2CCCCC2C1=O)Nc1ccc(OC(F)F)cc1 (configuration not stated)	8	1.3	0	0.8	5.2%	10
Cc1cccc(C(=O)Oc2cc(C)[nH]c(=O)c2[N+](=O)[O-])c1	7	1.7	3	0.4	1.8%	-5
Cc1nn(C)cc1-c1csc(N)n1	20	-7.6	-4	-0.6	0.9%	-8
Cc1ccc(/C=N/Nc2cc(C)nc(NCc3ccccc3)n2)cc1	16	-6.0	-8	0.6	?	-19
COc1ccc(C(=O)/C=C/c2ccc(O)cc2)c2c1CC(O)C(C)(C)O2 (configuration not stated)	.	5.7	-11	.	-1.0%	-41
CCSc1ccccc1C(=O)NCCc1ccccc1	16	5.9	1	4.4	0.4%	10
O=C1OC(c2ccccc2)=C/C1=C\N1CCOCC1	2	-3.6	-6	-0.4	-0.4%	-6
O=C(NC1CCCN(Cc2ccccc2F)C1)c1cccc(N2CCCC2=O)c1 (configuration not stated)	3	-2.2	2	1.0	-0.9%	-16
CCCCn1c(SCc2nc3ccccc3s2)nc2cc(S(N)(=O)=O)ccc21	13	1.8	-5	0.4	3.4%[38.3 µM]	-1
O=C(Oc1c(Br)cc(C(=S)N2CCOCC2)cc1Br)c1ccc(Cl)cc1	29	0.3	-19	2.5	0.7%	8
CC(=O)Nc1ccc(S(=O)(=O)c2ccc(C)cc2)cc1	-23	4.5	8	-0.1	3.8%	2
CCOC(=O)c1ccc(NC(=O)NC2CC3CCC(C2)N3)cc1 (configuration not stated)	32	-2.1	1	-0.2	3.3%	-2

The results go on:
SMILES	TRPML1 blocker	D2 ag	Six1-Eya2 blk	TRPML1 agonist	PINK1 modulator	D2 PAM
CCCn1c(N2CCN(CC(=O)NCc3cccs3)CC2)nc2ccccc21	-6	-2.7	-3	-0.5	0.5%	-26
Cc1ccc(N(C(=O)c2csnn2)C(C(=O)NC2CCCCC2)c2ccccn2)cc1C (configuration not stated)	-2	-7.4	4	-0.8	1.5%	-14
COc1ccc(CCN(C)C(=O)COc2cccc(-n3cnnn3)c2)cc1OC	-6	0.7	4	0.6	-2.5%	-4
O=C(O)CC/C(=N\NC(=O)c1ccncc1)c1ccccc1	82	-2.7	11	-0.4	-1.9%	-5
Cc1[nH]c2ccccc2c1C(=O)C(=O)NCCOc1ccccc1	8	-16	2	0.7	-0.9%	5
N/C(=N\OC(=O)c1ccccc1)c1ccncc1	-15	3.2	5	-0.5	2.6%	7
CC1CC(C)CN(S(=O)(=O)CCNC(=O)c2ccc3c(c2)OCO3)C1 (configuration not stated)	4	-1.0	-4	-0.9	2.3%	-3
CCC(=O)Nc1nc2ccc3sc(C)nc3c2s1	-10	-0.9	-14	-0.5	-2.0%	1
COc1ccc(NCc2cc3cc4c(cc3n(CC(=O)Nc3cc(C)cc(C)c3)c2=O)OCO4)cc1	13	.	.	2.6	0.0%	.
Cc1ccc(S(=O)(=O)NCc2ccccc2)s1	-16	0.9	-8	0.1	1.1%	-2
CCc1nnc(NC(=O)c2cc(C)nc3ccccc23)s1	-23	0.5	-3	-0.4	1.5%	1
O=S(=O)(Nc1ccc(-c2nc3cccnc3s2)cc1)c1cc(F)ccc1F	4	-1.0	-6	-0.8	1.0%	-8
COc1ccc(-n2cc(CNCCc3cnc[nH]3)c(-c3cccc(F)c3)n2)cc1	-13	-8.7	-19	-0.6	6.0%	-8
Fc1ccc(Sc2nc(-c3ccccc3)nnc2C(F)(F)F)cc1	14	-7.6	2	1.2	-1.4%	-5
NC(=O)NCc1cccc(Cl)c1	-1	-1.5	-2	-0.3	.	-9
Cc1cc(-c2nn(-c3ccccc3F)cc2CN2CCC(C(N)=O)CC2)c(C)s1	-10	-3.1	-2	0.2	-0.1%	-27
O=C(CS(=O)(=O)Cc1ccccc1)Nc1nc2ccccc2s1	-10	1.6	1	0.1	-1.6%	-1
O=C(O)c1ccc(CSc2nc(-c3ccc(Cl)cc3)cc(C(F)(F)F)n2)cc1	8	-0.2	-4	-0.6	.	-19
